Bioassay records as filed in PubChem BioAssay.
VACV Venus inh – vaccinia inhibition (Venus reporter) | Vaccinia virus Venus reporter expression, fluorescence | Potency, µM (series often up to 36.5 µM), without a hit: at the highest dose activity change, negative = inhibition, actives largely listed as inhibitors | actives 0.46% (n = 330,000) | AID 720580; active means well fitted inhibition curve with a large enough effect; inconclusive means small, poorly fitted or top-dose-only effect; inactive means no such curve, though single readings can be large or run the other way; tested in A549 cells; also: nearly all actives have a fitted effect of over 30% in size; inactives centre near -10
VACV mCherry inh – inhibitors of vaccinia virus infection (mCherry reporter signal); Potency, µM (series often up to 36.5 µM), inactives show at the highest dose activity change, negative = inhibition, usual class: inhibitors; actives 0.63% (n = 310,000); Vaccinia virus mCherry reporter infection, fluorescence; about a quarter of the inactives have no number; active = well fitted inhibition curve with a large enough effect; inconclusive = small, poorly fitted or top-dose-only effect; inactive = no such curve, though single readings can be large or run the other way; tested in A549 cells; also: nearly all actives have a fitted effect of over 35% in size; inactives centre near -10
Numbers without * were called inactive; i = inactive; ? = inconclusive; . = not tested or not shown; & = joins results of further samples; [ ] = remark or other dose. % is scaled to controls: 0 for no effect and ±100 for the full control effect; potency is read from the fitted curve at half-maximal effect. Rows are unselected; 0.86% or so of the library scored in one or more.

SMILES	VACV Venus inh	VACV mCherry inh
COc1ccc(S(=O)(=O)Nc2cc(C)nn2-c2ccccc2)cc1	-7.9%	-14.2%
COc1cc(/C=N/Nc2ccccn2)cc(OC)c1O	-20.6%	-27.2%
COc1ccc(Cc2nc3ccc(C(=O)NCCc4ccc(OC)c(OC)c4)cc3o2)cc1	-18.7%	-3.0%
CC(NC(=O)CCNC(=O)c1ccc(Br)cc1)c1ccc(-n2ccnc2)cc1 (stereo not given)	-15.3%	-4.4%
CN1C2Cc3c(n(C)c4ccccc34)C1CC=C2CO (stereo not given)	-0.7%	i
c1ccc(-n2c(SCc3nc(-c4cccs4)no3)nnc2-c2ccco2)cc1	-20.6%	-25.5%
CCOC(=O)c1sc2nc(C3CC3)cc(-c3ccc(OC)cc3)c2c1N	-7.4%	.
CCCC(=O)OC(C(=O)Nc1cc(C(F)(F)F)ccc1Cl)c1ccccc1 (stereo not given)	-17.3%	i
O=C(CSc1ccccc1C(=O)NCc1ccccc1)NC12CC3CC(CC(C3)C1)C2	?	?
COc1ccc(C(=O)Nc2cccc(-c3ccc(N4CCOCC4)nn3)c2)cc1	3.9%	-12.2%
Cc1cc(C(=O)Nn2cnnc2)cs1	-5.6%	-5.0%
CCn1c(SCC(N)=O)nnc1-c1ccco1	6.2%	-3.6%
COC(=O)c1cccc(N2C(=O)C(Cl)=C(N3CCOCC3)C2=O)c1	-4.4%	-5.0%
COc1ccc(S(=O)(=O)N2CCC(C)CC2)cc1N(C)S(=O)(=O)c1ccccc1	-14.9%	-3.2%
O=C(c1ccc(-n2cncn2)c([N+](=O)[O-])c1)N1CCN(S(=O)(=O)c2ccc(Cl)cc2)CC1	-23.2%	-14.2%
Clc1cc(Sc2ccc(Br)cc2)nnc1-c1ccccc1	-21.3%	.
Cc1ccc(CNC(=O)CN(C(=O)N2CCN(C)CC2)S(=O)(=O)c2ccc(C)cc2)cc1	-4.2%	-11.5%
O=C(NC1CC(=O)N(c2cccc(F)c2)C1)c1ccc2c(c1)OCO2 (stereo not given)	-10.8%	-10.4%
Nc1nc(SCC(=O)c2cc(F)ccc2F)n[nH]1	-8.3%	-1.4%
CC(C)CC(NC(=O)C1CCC(C)CC1)C(=O)Nc1ccc2c(c1)OCCO2 (stereo not given)	-1.8%	-10.3%
O=C(Nc1ccccc1)c1c(F)c(F)c(F)c(F)c1F	?	?
COc1ccc(-c2nnc(SC(C)C#N)o2)cc1 (stereo not given)	?	11.2µM*
COc1cc(N2CCCC2)c(OC)cc1/C=C(/C#N)c1cccc(F)c1	15.2%	-0.1%
CCOc1ccc(/C=C/c2nc(C#N)c(Nc3ccc(OCC)cc3)o2)cc1	-11.3%	-13.1%
Nc1ccc2c(c1)C=C/C2=C\c1ccccc1	-25.8%	-28.2%
SMILES	VACV Venus inh	VACV mCherry inh
Cn1c(SCC(=O)Nc2ccccc2)nnc1-c1ccc(NC(=O)CCc2ccccc2)cc1	-12.1%	-9.7%
Cc1ccccc1N(CC(=O)NCCSCc1ccco1)S(C)(=O)=O	-3.4%	-8.2%
COc1ccc(NC(=O)C(c2ccc(C)cc2)N(C)C(=O)/C=C\c2ccc3c(c2)OCO3)cc1 (stereo not given)	-12.4%	-11.8%
NC(=O)CSc1cn(Cc2ccccc2)c2ccccc12	-10.1%	-18.3%
CC(C)(C)c1ccc(C(=O)N2CCN(C(=O)C3CCCCC3)CC2)cc1	-23.5%	?
COc1cccc(Nc2ccccc2C(=O)O)c1	-13.7%	i
CCc1ccc(C(=O)c2cn(CC(=O)Nc3cccc(OC)c3)c3ccc(OC)cc3c2=O)cc1	-13.2%	-3.5%
O=C1CC2(CCN(C(=O)COc3ccccc3F)CC2)Oc2ccccc21	-14.5%	-0.8%
CC(=O)Nc1ccc(S(=O)(=O)NCCS(=O)(=O)N2CCN(c3ccccc3F)CC2)cc1	-11.2%&-10.2%	-12.0%&8.9%
CCC(C)(C)C1CCc2[nH]nc(C(=O)NCCNC(=O)OC(C)(C)C)c2C1 (stereo not given)	?	-19.1%
Cc1cc(N(CCCl)CCCl)ccc1/C=N/NC(=O)c1ccco1	-26.5%	?
CCOc1ccc(CC(=NCCO)C2=C(O)CC(C)(C)CC2=O)cc1OCC	-15.7%	i
CCOc1ncccc1C(=O)NCc1ccc(OC)c(OC)c1	-3.6%	3.4%
N#Cc1c(-c2ccccc2)cc(-c2ccccc2)nc1Br	-26.1%	-14.7%
CN(/N=C/c1cccc(Br)c1)C1=NS(=O)(=O)c2ccccc21	-1.6%	-23.4%
CC1CN(CCOc2ccc(Cl)c(Cl)c2)CC(C)O1 (stereo not given)	11.0%	i
CCCc1nc(SCc2cccnc2)c2c(=O)n(C)c(=O)n(C)c2n1	-17.9%	-5.6%
COc1ccc(OC(C)C(=O)Nc2ccccc2C(F)(F)F)cc1 (stereo not given)	-21.8%	?
Cc1oc2c(c1C(=O)N1CCC(C)CC1)C(=O)c1ccccc1C2=O	?	?
CC(C)(Oc1ccc(Cl)cc1)C(=O)Nc1ccncc1	?	.
COc1ccc2nc(NC(=O)CSc3nnnn3C3CCCCC3)sc2c1	-8.9%	-21.2%
CCCCn1nc(C(=O)N(CC(C)C)c2c(N)n(CCCC)c(=O)[nH]c2=O)c2ccccc2c1=O	-0.4%	-10.0%
O=C(NNC(=S)Nc1ccccc1)C1CC1	-10.9%	-23.6%
COc1ccccc1C(c1c(O)nc(SC)[nH]c1=O)c1c(O)nc(SC)[nH]c1=O	-0.5%	i
COc1ccc(/C=N/NC(=O)c2ccc(Br)cc2)c(OC)c1	-12.1%	-21.6%
SMILES	VACV Venus inh	VACV mCherry inh
O=C1C=C(c2cc(Cl)cc(Cl)c2)C[C@@H](c2ccc3c(c2)OCO3)C1	-23.9%	?
O=S(=O)(NCc1ccccc1)c1cccs1	?	-26.9%
O=C(NC(=S)N1CCCCC1)c1cccnc1	-11.5%	i
COC(=O)c1ccc(C(C(=O)NCc2ccccc2)N(Cc2ccco2)C(=O)c2cnccn2)cc1 (stereo not given)	-6.4%	-6.8%
Cc1ccc(CN2CCc3nc(N4CCN(c5ccccc5F)CC4)ncc3C2)s1	-19.8%	-18.9%
Cc1ccc(OCc2nc3ccccc3n2Cc2ccccc2Cl)cc1	-15.2%	-7.6%
CCCn1c(CCC(=O)Nc2cccc(C)c2C)nc2cccnc21	2.1%	-6.5%
CC1(C)CC(=O)c2cnc(NC(=O)CCc3ccccc3)nc2C1	6.0%	-12.8%
CCOC(=O)c1ccc(NC(=O)c2nn(CC)cc2Br)cc1	-9.4%	-18.4%
Cc1nn(C)cc1/C=C1\SC(=S)NC1=O	1.8%	-9.9%
CCCCC(=O)N1c2ccccc2C(C)(c2ccccc2)CC1(C)C (stereo not given)	8.9%	4.1%
CC(=O)Oc1cccc(/C=c2\sc3nc(-c4ccco4)nn3c2=O)c1	-12.0%	i
C=CCn1c(COc2ccc(F)cc2)nnc1SCC(=O)NC1CC1	-5.9%	i
Cc1c(C(=O)Nc2ccc(N3CCOCC3)cc2)cccc1[N+](=O)[O-]	2.2%	-5.6%
C/C(=N\NC(=O)c1ccc(OC2CCCC2)cc1)c1ccc(O)cc1	-26.1%	-12.1%
CSc1ccc(/C=C2\C=Cc3ccc([N+](=O)[O-])cc32)cc1	-6.5%	-9.5%
Cc1ccc(CN2CC(N3CCCCC3)CS2(=O)=O)cc1 (stereo not given)	6.1%	35.0%[activator]
NNC(=O)Cn1nc(Cc2ccccc2)n(N)c1=O	-2.0%	-10.1%
COc1ccc(S(=O)(=O)N2CCN(C(C)C(=O)Nc3ccc(C(C)C)cc3)CC2)cc1 (stereo not given)	-20.7%	-9.5%
COc1cc(C(=O)NNC(=O)CNC(=O)C2CCCCC2)ccc1OC(C)C	-11.3%	-8.4%
COc1cc(Cl)c(C)cc1NC(=O)Cn1c(C)c2cnn(-c3ccccc3)c(=O)c2c1C	3.6%	-7.9%
O=C(NCC1CCCO1)C(Cc1ccccc1)N1C(=O)C2C3C=CC(C4CC34)C2C1=O (stereo not given)	4.8%	9.4%
Cc1ccc(C)c(Cc2c(C)nc(C)[nH]c2=O)c1	-7.6%	-10.9%
Cc1c(-c2ccccc2)c(=O)oc2c(CN3CCCC3)c(O)ccc12	-0.2%[7.34 µM]	-6.0%[7.34 µM]
Cc1nn(Cc2c(F)c(F)c(F)c(F)c2F)c(C)c1NC(=O)c1cccc(COc2ccc(Cl)cc2)c1	-27.3%	-11.2%
SMILES	VACV Venus inh	VACV mCherry inh
CSc1ccc(NC(=O)N2CC(C)OC(C)C2)cc1 (stereo not given)	1.4%	.
CCc1nnc2c(Nc3ccccc3Br)nc3ccccc3n12	-3.4%	-12.5%
O=C(O)c1nn(CCOc2cccc(Br)c2)c(=O)c2ccccc12	-11.1%	10.8%
CCC1=C(OC(=O)N(CC)CC)N2C(=O)OC(=NCCc3c[nH]c4ccccc34)[C@]2(Cc2ccccc2)[C@H]2C1=CC[C@H]1C(=O)N(C)C(=O)[C@H]12	?	-5.8%
C/C(=N\NC(=S)Nc1ccccc1C)c1cc2ccccc2o1	-21.0%	?
Cn1c(SCc2ccccn2)nc2c1c(=O)[nH]c(=O)n2C	-9.2%	i
CCCCCCCC1(C)NC(=O)N(c2ccccc2)N1 (stereo not given)	-29.0%	-25.9%
CCC1C(=O)Nc2ccccc2N1C(=O)COc1ccccc1 (stereo not given)	3.6%	i
CCC1CN(C(=O)N2CCC(C(=O)NCCc3ccc(OC)c(OC)c3)CC2)c2ccccc2O1 (stereo not given)	-11.6%	-5.3%
CCOC(=O)CC(SP1(=S)OCC2(CCCCC2)CO1)C(=O)OCC (stereo not given)	-1.0%	-14.1%
CC(C)c1ccc(NC(=O)C2CCCN(S(=O)(=O)c3ccc4c(c3)C(C)(C)C(=O)N4C)C2)cc1 (stereo not given)	-20.3%	3.3%
CCOC(=O)C1=C(C)N=C(/N=C/N(C)C)SC1c1ccccc1 (stereo not given)	-11.3%	-15.6%
C#CCSc1nc2sc3c(c2c(=O)n1-c1cccc(OC)c1)CCN(C(C)=O)C3	-12.1%	-11.3%
COc1ccccc1CN1CCCC(C(=O)c2ccccc2OC)C1 (stereo not given)	-2.7%	?
CCOC(=O)/C(C#N)=C/C1=C(N2CCOCC2)CC(C)(C)OC1	-9.7%	0.2%
Cc1cccc(OCC(=O)N2CCN(CCc3ccccn3)CC2)c1	-0.1%	-20.0%
CCN1C(=O)[C@H]2[C@@H](c3ccc(C)cc3)N3C(=O)N(c4ccc(C(F)(F)F)cc4)C(=O)[C@@]3(CC)[C@H]2C1=O	-20.6%	?
COc1cc(/C=C/c2ccccc2)cc(OC)c1	0.6%	-4.8%
CCCCN(CCCC)C(=S)NC(=O)C(C)(C)C	-4.0%	i
O=C(CSc1ccccc1F)OCC(=O)N1CCN(C(=O)c2ccco2)CC1	-11.1%	i
COc1cc(NC(=O)C(Cc2ccccc2)n2cccc2)cc(OC)c1 (stereo not given)	-15.0%	-18.6%
O=C(NNC(=S)NC(=O)c1ccc(F)cc1)c1cccnc1	-8.8%	-16.4%
CC(=O)c1c(C)[nH]c(C(=O)NCCc2ccccc2)c1C	-21.0%	.
COC(=O)C1=C(C)N(C)C(C)=C(C(=O)OC)C1c1ccc(Cl)cc1	-25.8%	.
COc1ccc(C(=O)N/N=C/c2sc(N3CCOCC3)nc2-c2ccccc2)cc1OC	-3.7%	-11.1%
SMILES	VACV Venus inh	VACV mCherry inh
O=C(/C=C/c1cccs1)Nc1ccc(N2CCOCC2)c(S(=O)(=O)Nc2cc(Cl)ccc2Cl)c1	-12.9%	-15.4%
O=C(c1ccc(N2CCCCC2)c([N+](=O)[O-])c1)N1CCC2(CC1)OCCO2	-3.0%	i
COc1ccccc1N1CCN(C(=O)c2ccc(Br)s2)CC1	0.4%	i
O=C1CN(C(=O)c2ccccc2F)C(c2ccc(F)cc2)c2cc(F)ccc2N1 (stereo not given)	-14.6%	-5.2%
Cc1cc(N)c2ccccc2[n+]1CCCCCCCCCC[n+]1c(C)cc(N)c2ccccc21	?	-28.6%
CCCCCCCCN1C(=O)[C@H](CC(=O)N2CCCCC2)C[C@@]2(C(=O)OCC)CCCC=C12	-8.8%	-14.3%
S=c1nc(-c2ccccc2)n(-c2ccccc2)[nH]1	-5.7%	-6.2%
Cc1ccc(C)c(CN2C(=O)CSc3ccc(C(=O)NCc4ccccc4)cc32)c1	-4.3%	-4.6%
O=C(NNc1ccccc1F)c1ccccc1	-17.7%	-8.9%
COc1cc(/C=C2\SC(=Nc3c(C)n(C)n(-c4ccccc4)c3=O)NC2=O)ccc1O	-3.0%	i
Cc1ccc(Cl)cc1NC(=O)C1CCN(S(=O)(=O)c2cccc3nonc23)CC1	-2.0%	-9.9%
COCCN1CCc2[nH]c(=S)[nH]c(=O)c2C1	-2.2%	-3.7%
C[C@@]12C(=O)Nc3ccc(Cl)cc3C(=O)N1[C@H]1c3ccccc3OC[C@@H]1[C@@H]2c1ccccc1	?	i
CC1(C)CC(=O)c2sc(NC(=O)C(C)(C)C)nc2C1	-22.8%	-12.0%

Quoted from the results shown, 6 compounds:
SMILES	VACV Venus inh	VACV mCherry inh
COc1ccc(S(=O)(=O)Nc2cc(C)nn2-c2ccccc2)cc1	-7.9%	-14.2%
COc1cc(/C=N/Nc2ccccn2)cc(OC)c1O	-20.6%	-27.2%
COc1ccc(Cc2nc3ccc(C(=O)NCCc4ccc(OC)c(OC)c4)cc3o2)cc1	-18.7%	-3.0%
CC(NC(=O)CCNC(=O)c1ccc(Br)cc1)c1ccc(-n2ccnc2)cc1 (stereo not given)	-15.3%	-4.4%
CN1C2Cc3c(n(C)c4ccccc34)C1CC=C2CO (stereo not given)	-0.7%	i
c1ccc(-n2c(SCc3nc(-c4cccs4)no3)nnc2-c2ccco2)cc1	-20.6%	-25.5%
